# Assay outcomes: PubChem BioAssay, several laboratories
# Hsc70 ATP site – Hsc70 inhibitors, probe displacement, primary screen, biochemical, fluorescence polarization (AID 568); displacement, % at 20 µM; hits with a dose series show IC50 in µM; 83,000 tested, under 10 active; Hsc70 fluorescence polarization, probe displacement; higher % means a stronger effect; strong numbers were not always called active;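 active = displacement above 50% without optical interference and an IC50 on retest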;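 note: ATPase domain with a fluorescein-tagged ATP probe; 0% = vehicle and 100% = excess ADP; read after one hour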
# MT1-MMP reporter – inhibitors of MT1-MMP promoter transcription, cell-based, luciferase reporter, luminescence (AID 618) | MT1-MMP promoter luciferase reporter cells, luminescence | calls from a first round at 10 µM; hits with a dose series show EC50 in µM | 0.62% of 87,000 active;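 active = over half of the reporter light lost at 10 µM or EC50 under 50 µM; inactive = the rest and hits that failed the dose series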;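 note: actives suppress MT1-MMP promoter-driven transcription so potencies describe inhibitors; HT1080 fibrosarcoma cells; overnight exposure; toxic or luciferase-blocking compounds were not removed from the actives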
# WNV NS2B-NS3 inh – blocks West Nile virus NS2B-NS3 protease activity | z-score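 (tested at a level between 10 and 100 µM)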 | 0.18% of 65,000 active | WNV NS2B-NS3 protease, fluorogenic substrate Ex360/Em465; hits give low values;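 active = z-score at -3 or under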;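 note: score is relative to mean and spread of the compound wells of a plate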
# Target sequence (P06935 1371-1501 limits assumed): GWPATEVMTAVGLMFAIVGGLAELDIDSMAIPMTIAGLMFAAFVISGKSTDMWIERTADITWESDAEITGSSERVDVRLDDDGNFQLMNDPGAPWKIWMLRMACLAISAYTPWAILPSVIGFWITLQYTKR
# Target sequence (P06935 1502-1679 limits assumed): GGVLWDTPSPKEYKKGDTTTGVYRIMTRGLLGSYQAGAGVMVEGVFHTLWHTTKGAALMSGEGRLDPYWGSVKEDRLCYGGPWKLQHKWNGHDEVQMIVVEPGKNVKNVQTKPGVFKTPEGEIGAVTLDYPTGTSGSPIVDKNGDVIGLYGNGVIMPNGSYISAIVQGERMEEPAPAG
# * hit, by the source's call; i = inactive; nt = no result given.
compound	Hsc70 ATP site	MT1-MMP reporter	WNV NS2B-NS3 inh
CC1(C)Cc2ccccc2-c2nnc(-c3ccccc3)n21	-1.6%	i	0.43
COc1ccc(OC)c2[nH]c(=O)c(CCNC(=O)c3ccc(S(=O)(=O)N(C)C)cc3)cc12	-0.8%	i	1.2
c1ccc(-n2c(Cc3cn4ccsc4n3)nnc2N2CCOCC2)cc1	2.8%	i	-1.3
O=C(Nc1cc(N2CCOCC2)ncn1)NC1(C(F)(F)F)Oc2ccccc2O1	5.3%	i	nt
O=c1c2cnn(-c3ccccc3)c2nc(-c2ccco2)n1-c1ccccc1	1.9%	i	-1.3
C=COCCn1c(-c2nonc2N)nc2ccccc21	0.6%	i	0.13
COc1ccccc1/C=C/C1(C(=O)NC2CCCC2)CC(=O)N1c1ccc(F)cc1 (stereo not given)	1.5%	i	nt
COc1ccccc1CN1C(=S)SC(C)(C)C1NO (stereo not given)	-1.9%	i	0.14
N#Cc1nc(COc2ccc(Cl)cc2)oc1N1CCCC1	2.5%	i	0.96
C/C(=N\O)C(=O)NCc1ccncc1	-3.3%	i	0.55
Cc1cccc(NC(=O)/C(=C\c2ccco2)NC(=O)c2ccccc2)c1	3.3%	i	nt
CCCn1c(SCC(=O)N2CCCCC2)nnc1-c1ccco1	0.7%	i	0.03
Clc1ccc(-c2nc(N3CCCCC3)nc3ccccc23)cc1	-0.2%	i	nt
O=c1[nH]c2cc3c(cc2cc1CN(Cc1ccccc1)Cc1nnnn1Cc1ccco1)OCCO3	-9.9%	i	-0.65
CCC(C(=O)Nc1ncccn1)(C(F)(F)F)C(F)(F)F	9.2%	i	2.3
CC(=O)N(C)C1(c2nnnn2CCOC(=O)Nc2ccc(Cl)cc2)CCCCC1	-4.3%	i	-0.13
COC(=O)C1(C)Nc2ccccc2C(=O)N1c1ccccc1C (stereo not given)	5.7%	i	0.45
CCSCc1nnc(SCC(=O)Nc2nc3ccccc3s2)n1C	1.2%	i	0.25
CCOC(=O)N1CCN(C(=O)c2ccccc2N(C)S(C)(=O)=O)CC1	0.2%	i	-0.92
c1csc(-c2nnc(Cc3cccc4ccccc34)o2)c1	4.6%	i	nt
CCN(CC)CCCN1C(=O)C(O)=C(C(=O)c2sc(C)nc2C)C1c1ccco1 (stereo not given)	1.0%	i	-0.8
Clc1ccc(/C=N/Nc2nn[nH]n2)cc1	-1.8%	i	nt
CC(=O)c1c(C)n([O-])c2ccccc2[n+]1=O	1.9%	i	0.1
Cc1ccc(N(CC(O)COCc2ccco2)S(=O)(=O)c2ccc(C)cc2)cc1 (stereo not given)	-3.2%	i	-1

# The list goes on (2 carried over from the part before).
compound	Hsc70 ATP site	MT1-MMP reporter	WNV NS2B-NS3 inh
CC(=O)c1c(C)n([O-])c2ccccc2[n+]1=O	1.9%	i	0.1
Cc1ccc(N(CC(O)COCc2ccco2)S(=O)(=O)c2ccc(C)cc2)cc1 (stereo not given)	-3.2%	i	-1
CC(C)CNC(=O)COc1ccc2c3c(c(=O)oc2c1)CCC3	-5.7%	i	0.12
O=C(COC(=O)Cn1cnc2ccccc21)NCCC1=CCCCC1	-4.3%	i	0.49
CCN1CCCC1CNc1ncnc2c1[nH]c1ccc(F)cc12 (stereo not given)	-12%	i	0.79
CCOc1ccccc1NC(=O)NC1CCN(CC(=O)Nc2ccc3c(c2)OCCO3)CC1	4.5%	i	1.4
CN(CCC(=O)Nc1ccc2c(c1)OCO2)Cc1ccccc1	-1.2%	i	-0.81
COCCCNC(=O)CSC1=Nc2ccccc2C2=NC(Cc3c[nH]c4ccccc34)C(=O)N12 (stereo not given)	-29%	i	1.3
Cc1ccc(N=Cc2ccc(O)cc2O)cc1F	-5.6%	i	0.61
Cc1ccc(C2c3c(oc4ccccc4c3=O)C(=O)N2CCCN2CCOCC2)o1 (stereo not given)	-4.1%	i	nt
c1ccc2[nH]c(NC3=NCCC3)nc2c1	-0.9%	i	0.16
Cc1nonc1NC(=O)CSc1nc(C2CCCCC2)nc2ccccc12	-12%	i	-0.74
COc1ccc(-c2nnc(SCC(=O)Nc3ccc(C)cc3)n2C)cc1	-2.2%	i	-0.6
CC(=O)N1CCN2C(=O)C1CCCC(=O)c1cc(C3CCCCC3)ccc12 (stereo not given)	3.3%	i	0.14
O=[N+]([O-])c1cccnc1N1CCC(c2cc(-c3cccc(C(F)(F)F)c3)n[nH]2)CC1	5.3%	i	nt
CSc1nnc2c(n1)OC(C)N(C(=O)c1ccccc1)c1ccccc1-2 (stereo not given)	4.1%	i	-0.04
O=C(NCCCCNC(=O)c1ccc(Cl)s1)c1ccc(Cl)s1	4.2%	i	nt
CC1(C)CC(=O)C=C(Nc2ccc(C(=O)O)cc2)C1	-2.1%	i	nt
CCNC(=O)c1cc2c(=O)n3cccc(C)c3nc2n(Cc2ccc(C)cc2)c1=N	1.8%	i	1.4
COc1ccc(NC(=O)C2CCCN(c3c4c(nc5ncnn35)CCC4)C2)cc1 (stereo not given)	-1.9%	i	-0.86
COc1cccc(-c2nn(-c3ccccc3)cc2CO)c1	5.0%	i	-0.37
CCOc1ccccc1NC(=O)C(CC(C)C)NC(=O)C1CCCCC1 (stereo not given)	-2.3%	i	nt
CC1CCCCN1S(=O)(=O)c1ccc(NC(=O)c2cccc(-n3cnnn3)c2)cc1 (stereo not given)	-6.4%	i	-0.64
Cc1cc2c(N3CCCCC3C)ncnc2s1 (stereo not given)	1.3%	i	2.1
O=C(c1ccc(Br)s1)N1CCCC1	-0.2%	i	nt
O=C(NC1CCCC1)C1CCN(c2nccs2)CC1	-1.2%	i	nt
CCOC(=O)c1cc(NC(=O)NCc2ccco2)c(C)nc1C	3.2%	i	-0.88
COc1cc(C(C#N)N2CCOCC2)ccc1O (stereo not given)	-5.3%	i	0.58
COc1ccc(-c2cc(C)nc3nc(N)nn23)cc1	-1.3%	i	nt
O=C(NC1CC2CCC1C2)c1ccc(CN2CCOCC2)cc1 (stereo not given)	-1.1%	i	0.1
C=C(C)CNC(=S)NNC(=O)c1ccco1	-4.3%	i	nt
COc1ccccc1-c1nnc(SCC(=O)Nc2c(Cl)cccc2Cl)o1	7.2%	i	0.62
COc1cccc(C(c2nnnn2CCc2ccccc2)N2CCN(c3ccccc3)CC2)c1OC (stereo not given)	0.7%	i	-0.9
CC(=C/c1ccco1)/C=N/N1CCN(c2ccccc2)CC1	-3.1%	i	nt
Cc1cccc(OCC(=O)Nc2ccc3c(c2)OCO3)c1C	-0.6%	i	-0.64
COc1ccc2cc3cc(C(=O)Nc4ccccc4N4CCN(C)CC4)oc3nc2c1	0.1%	i	-0.68
CCN(CC)CCNC(=O)C1c2cc(OC)c(OC)cc2C(=O)N2CCc3ccccc3C12 (stereo not given)	1.5%	i	0.14
COc1ccc(Nc2cc(C(=O)NCCCN3CCN(C)CC3)c3ccccc3n2)cc1	2.0%	i	-0.3
COC(=O)c1oc2ccccc2c1NC(=O)CN1CCCC1	1.8%	i	-0.8
c1ccc(COn2nnc3ccccc32)c(COn2nnc3ccccc32)c1	1.7%	i	-0.52
Cc1cccc(Nc2nc(N)nc(CN3CCC(C(N)=O)CC3)n2)c1C	-0.1%	i	0.54
Cc1ccc(S(=O)(=O)N2Cc3ccccc3CC2C(=O)Nn2cnnc2)cc1 (stereo not given)	2.9%	i	-0.66
Cc1cnc(NC(=O)CSc2nnc(-c3ccccc3)o2)s1	-3.3%	i	0.96
N#CC1(c2ccccc2)CCCN1C(=O)c1ccc(Br)cc1 (stereo not given)	-3.4%	i	nt
COc1ccc(C=O)cc1CSc1nnc(COc2cccc3cccnc23)o1	2.7%	i	nt
O=C1C=C(Nc2ccc(Cl)cc2)CC(c2ccco2)C1 (stereo not given)	-2.5%	i	nt
CC(C)COc1ccc(/C(=N/O)c2ccccc2)cc1	1.4%	i	nt
Cc1cc(C(=O)COC(=O)C2=NNC(=O)CC2)c(C)n1-c1cccc(C(F)(F)F)c1	1.7%	i	nt
Cn1c(C(=O)NCc2ccccn2)cc2c(=O)n3ccccc3nc21	-13%	i	4.2
COc1ccccc1NC(=O)CS(=O)(=O)c1cccc2nsnc12	3.4%	i	-0.29
CCn1c(NC(C)=O)nc2ccccc21	-1.3%	i	nt
Cc1ccc(-c2nnc(N3CCN(C(=O)CSc4ncn[nH]4)CC3)c3ccccc23)cc1	3.8%	i	-1.2
Nc1c(S(=O)(=O)c2ccccc2)c2nc3ccccc3nc2n1/N=C/c1cccc(O)c1	-10%	i	-0.66
Nc1nc(CN2CCN(c3ccccn3)CC2)nc(Nc2ccc(Cl)cc2)n1	3.6%	i	0.22
CCOC(=O)c1c(C)n(C)c2ccc(OCC(O)Cn3c(C)nc4ccccc43)cc12 (stereo not given)	0.3%	i	0.48
Cc1ccc(OCCCn2ccnc2)cc1C	2.7%	i	nt
COc1cc(/C=c2\s/c(=C(/C#N)C(=O)N3CCCC3)n(-c3ccccc3)c2=O)ccc1O	-58%	i	-1.2
CCc1nc2c3cnn(-c4cc(Cl)ccc4C)c3ncn2n1	-4.8%	i	0.05

# Reprinted at random: 4 compounds from above
compound	Hsc70 ATP site	MT1-MMP reporter	WNV NS2B-NS3 inh
O=C(c1ccc(Br)s1)N1CCCC1	-0.2%	i	nt
CCN(CC)CCNC(=O)C1c2cc(OC)c(OC)cc2C(=O)N2CCc3ccccc3C12 (stereo not given)	1.5%	i	0.14
COc1ccccc1/C=C/C1(C(=O)NC2CCCC2)CC(=O)N1c1ccc(F)cc1 (stereo not given)	1.5%	i	nt
CCc1nc2c3cnn(-c4cc(Cl)ccc4C)c3ncn2n1	-4.8%	i	0.05

# (cont.)
compound	Hsc70 ATP site	MT1-MMP reporter	WNV NS2B-NS3 inh
O=C(O)Cc1ccc(NC(=O)C2CC=CCC2C(=O)O)cc1 (stereo not given)	4.2%	i	-0.84
COc1cccc(NC(=O)CCN2CCC(C(N)=O)CC2)c1	-5.6%	i	-0.94
CCOC(=O)C1CCN(C(=O)c2cccc(Cl)c2)CC1	-1.3%	i	0.89
Cc1ccc(NC2=NCCC2)cc1Cl	3.4%	i	nt
Cc1c(NC(=O)c2ccc3ncccc3c2)c(=O)n(-c2ccccc2)n1C	8.2%	i	nt
CC(=O)c1cc2c(cc1NC(=O)CN1CCCCC1C)OCO2 (stereo not given)	-3.1%	i	1.5
O=C1C(Cl)=C(N2CCCCC2)C(=O)C(Cl)=C1c1cnc(N2CCCCC2)s1	2.0%	4.5µM*	nt
CCN(CC)C(=O)CSC1=Nc2ccccc2C2=NC(Cc3c[nH]c4ccccc34)C(=O)N12 (stereo not given)	0.7%	i	0.82
CCCOC(=O)NC1CCS(=O)(=O)C1 (stereo not given)	-1.1%	i	nt
Cc1ccc(C(C)C)cc1S(=O)(=O)NCc1cccnc1	-3.3%	i	-0.63
CCn1c2ccccc2c2nn(C)c(=N)nc21	3.6%	i	0.06
O=c1nc2scc(-c3ccccc3)n2c2ccccc12	3.6%	i	2.4
COc1cccc(CN(C)CC(=O)NC(=O)NCc2ccco2)c1	2.0%	i	0.65
CC(=O)NCCn1c(SCC(=O)NCc2ccco2)nc2ccccc2c1=O	3.3%	i	-1
Cc1cccc(C2Nc3ccccc3C(=O)N2CCc2ccccc2)n1 (stereo not given)	-1.5%	i	1.1
CC(C)NC(=O)c1ccc(CNC(=O)OCC(F)(F)F)cc1	2.2%	i	nt
COc1ccc(OCC(=O)N2CCN(C(=O)COc3ccccc3)CC2)cc1	1.9%	i	0.01
COc1ccc(-c2noc(COc3ccc(Cl)c(C)c3)n2)cc1	-0.3%	i	0.45
CC1CCCC(C)N1C(=O)CSc1nnc(-c2c[nH]c3ccccc23)o1 (stereo not given)	1.2%	i	-0.52
CCOc1cc(Br)c(C(=O)O)cc1OCC	1.7%	i	0.34
CCN(CC)c1ccc(/C=N/n2nnnc2N)c(O)c1	-3.5%	i	0.43
COc1ccc(NC(=O)CCn2cccc2)cc1	-1.7%	i	1.9
CO/N=C/NC(=O)Cc1cn(-c2ncc(C(F)(F)F)cc2Cl)c2ccccc12	-3.9%	i	nt
Cc1cc(C(F)F)n2nc(C(=O)Nc3cccnc3Cl)nc2n1	2.2%	i	nt
CC(C)Cc1cc(C(=O)NCc2cccs2)no1	0.0%	i	-1.1
CCc1nnc(NC(=O)C2CCCN2S(=O)(=O)c2ccc(F)cc2)s1 (stereo not given)	-6.9%	i	0.42
COC(=O)C1=C(C)N=C2SC(C)C(=O)N2C1c1cccc(F)c1 (stereo not given)	-2.5%	i	-0.56
O=C(CN(C1CCCCC1)S(=O)(=O)c1ccc(Cl)cc1)NCc1ccncc1	2.5%	i	-0.71
O=C(Nn1c(-c2ccccc2)nc2ccccc2c1=O)c1ccco1	-2.3%	i	-0.39
CCOC(=O)c1ccc(CC(=O)c2oc3cc(O)ccc3c2C)o1	-4.3%	i	-0.84
CC(=O)N1CC2(C)CN(C(C)=O)CC(C)(C1)C2O (stereo not given)	4.7%	i	0.23
